# High-throughput results (PubChem BioAssay)
# HPGD inh: blocks human HPGD enzyme activity; P15428; purified HPGD, NADH fluorescence kinetic, PGE2 substrate; Potency, µM, for the others: at the top dose activity change, negative = inhibition, usual class: inhibitors; 150,000 tested, 4.3% active; active = well fitted inhibition curve with a large enough effect (not every such curve was filed as active); inconclusive = small, poorly fitted or top-dose-only effect, or another doubt; inactive = no such curve, though single readings can be large or run the other way;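 also: top concentration of the series not given in the record; plate controls included wells without enzyme; inactives centre near -10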
# Target sequence (P15428 whole entry, looked up): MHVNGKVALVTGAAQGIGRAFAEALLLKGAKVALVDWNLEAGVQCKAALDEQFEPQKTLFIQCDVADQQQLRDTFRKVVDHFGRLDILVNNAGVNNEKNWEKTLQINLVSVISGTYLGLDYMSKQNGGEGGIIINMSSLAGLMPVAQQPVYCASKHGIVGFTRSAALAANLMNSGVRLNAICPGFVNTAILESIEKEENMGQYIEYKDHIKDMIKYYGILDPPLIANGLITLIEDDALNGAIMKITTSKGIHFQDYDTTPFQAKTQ
#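 20 nM HPGD preincubated 15 min at room temperature with compound in 50 mM Tris-HCl pH 8, 0.01% Tween 20. Started with 1 mM NAD+ and 30 uM prostaglandin E2; NADH fluorescence (360/450 nm) read 5 times over 30-s intervals, last minus first.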
# The depositor's hits bear a star; ? = inconclusive; & = joins results of further samples; [ ] = dose if it differs, or a comment. % is scaled to controls: 0 for no effect and ±100 for the full control effect; potency is read from the fitted curve at half-maximal effect. Not all compounds are listed; the hit share may differ from the screen's.
SMILES,HPGD inh
Clc1ccc(N2CCN(Cc3ccccc3Cl)CC2)cc1,-9%
Cc1cc(C=C2C(=O)N(C)C(=S)N(C)C2=O)c(C)n1C1CCCC1,-13%
Cc1nn(Cc2ccccc2Cl)c(Cl)c1C(=O)OC(C(=O)NC(N)=O)C(C)C (centres undefined),-2%
Nc1ccc(CCN2CCN(c3cccc(C(F)(F)F)c3)CC2)cc1,-8%
C/C=C(/C)C(=O)OC1CC[C@]2(C)C3CCC4[C@]5(O)CC(O)[C@]6(O)C(CN7CC(C)CCC7[C@]6(C)O)[C@]5(O)C[C@@]42O[C@]13O (some centres undefined),-14%
O=C(c1ccccc1F)c1cn(Cc2ccccc2)c2ccccc12,0%
C[C@H]1O[C@@H](O[C@H]2[C@@H](O)C[C@H](O[C@H]3[C@@H](O)C[C@H](O[C@H]4CC[C@@]5(C)[C@H](CC[C@@H]6[C@@H]5CC[C@]5(C)[C@@H](C7=CC(=O)OC7)CC[C@]65O)C4)O[C@@H]3C)O[C@@H]2C)C[C@H](O)[C@@H]1O,-4%
CSc1ncc(/C=C2/C(=O)NC(=O)N(C3CCCCC3)C2=O)cn1,?
CCCCCCC(C)OC(=O)COc1ccc(Cl)cc1Cl (centres undefined),-19%
O=C1NC(=S)NC(=O)C12C(c1ccccc1)NC(=S)NC2c1ccccc1 (centres undefined),-11%
C[N+]1([O-])[C@@H]2CC[C@H]1CC(OC(=O)[C@@H](CO)c1ccccc1)C2 (some centres undefined),-7%
O=C1C2(c3ccccc3)CN3CN(C2)CC1(c1ccccc1)C3,-14%
CC1(C)CSC(Nc2ccc(F)c(Cl)c2)=N1,-14%
O=C(NC1(C(F)(F)F)Oc2ccc(Cl)cc2O1)N1CCC2(CC1)OCCO2 (centres undefined),-11%
C=CCn1c(O)c(C(C)=Nc2ccc(N(CC)CC)cc2)c(=O)[nH]c1=O,-24%
C[C@@]12CCC(OS(=O)(=O)O)C[C@@H]1CCC1C2CC[C@]2(C)C(=O)CCC12 (some centres undefined),1%
O=C(C1CCCN(S(=O)(=O)c2cccc3nsnc23)C1)N1CCC2(CC1)OCCO2 (centres undefined),-12%
CC1CCC(NCC(O)c2ccccc2)CC1 (centres undefined),-5%
C=CCN1CCC2(C)c3cc(O)ccc3C[C@H]1[C@H]2C,3%
COC(=O)C(O)(c1ccc(NC(=S)NC(=O)c2ccc(Cl)cc2Cl)c(C)c1)C(F)(F)F (centres undefined),?
COC(=O)c1c(N)n(Cc2ccc(OC)cc2)c2nc3ccccc3nc12,?
COc1ccc(CC(=O)Nc2ccc3c(C(F)(F)F)cc(=O)oc3c2)cc1OC,-15%
CN(C)[C@@H]1C(=O)C(C(N)=O)=C(O)[C@@]2(O)C(=O)C3=C(O)c4c(O)ccc(Cl)c4[C@@](C)(O)C3C[C@@H]12 (some centres undefined),-17%
O=C(Cn1ncc2c3ccccc3n(Cc3cccc(Cl)c3)c2c1=O)N1CCC2(CC1)OCCO2,-17%
CN(C)C(=O)OCc1n(C)cc[n+]1C,-5%
# (listing goes on)
SMILES,HPGD inh
c1cncc([C@H]2CCCCN2)c1,0%
CCOC(=O)c1cncn1C(C)c1ccccc1 (centres undefined),-3%
CCOC(=O)C1=C(N)OC(C)=C(C(=O)OCCOC)C12C(=O)Nc1ccccc12 (centres undefined),-14%
O=[N+]([O-])c1cc(S(=O)(=O)c2ccc(O)c([N+](=O)[O-])c2)ccc1O,?
c1ccc2c(CCNC3=NCCC3)c[nH]c2c1,-10%
O=C(Cn1cc(C(=O)c2ccccc2F)c2ccccc21)NCc1ccco1,-22%
CC(C)N1CC=C(c2c[nH]c3ccccc23)CC1,-12%
CN(CCC(=O)O)C1=Nc2ccc(Cl)cc2C(c2ccccc2)=[N+]([O-])C1,-5%
CC(N)Cc1ccc(O)cc1 (centres undefined),-7%
CC(C)n1c(=O)c(C=Nc2cccc([N+](=O)[O-])c2)c(O)n(CCc2ccccc2)c1=O,-5%
CCCCC/C(=N\O)c1c[nH]c2ccccc12,-12%
Cc1cc(Cl)ccc1O,-3%
CCCNC(=O)c1c(N)n(Cc2ccco2)c2nc3ccccc3nc12,?
Cc1cc(/C=C2\C(=O)NC(=O)N(Cc3ccccc3)C2=O)c(C)n1-c1ccc(Cl)c(C(=O)O)c1,18µM*
O=C(CCCn1c(=O)[nH]c2cc(Cl)ccc2c1=O)N1CCC2(CC1)OCCO2,-13%
O=C(c1cccs1)c1cn(Cc2ccccc2Cl)c2ccccc12,-3%
CC12CN3CCN(C1)CC(C)(C3)C2=NO,-5%
COc1cc(/C=C2\C(=O)NC(=O)N(c3ccccc3)C2=O)cc(OC)c1OC,?
CN1CSC(=S)N(C)C1,-18%&-8%
C/C(O)=C(\C#N)C(=O)Nc1cc(Br)ccc1Br,-13%
Cc1ccc(S(=O)(=O)NC(Cc2cnc[nH]2)C(=O)O)cc1 (centres undefined),-1%
CC(=NCCCN1CCCCC1)c1c(O)n(Cc2ccccc2)c(=O)[nH]c1=O,-22%
O=C(c1csc2c1CCCCC2)N1CCC2(CC1)OCCO2,?
CC(C)(C)OOC(C)(C)C,-7%
COc1ccc(S(=O)(=O)NC(CC(=O)N2CCC3(CC2)OCCO3)c2ccco2)cc1 (centres undefined),-9%
# (continued)
SMILES,HPGD inh
O=[N+]([O-])c1ccc(N2CCCC2)c(F)c1Br,-17%
NC(C(=O)O)c1cc(=O)[nH]o1 (centres undefined),-7%
CC(Cl)(Cl)Cl,-10%
O=C(CNC(=O)OCc1ccccc1)NCC(=O)Nc1ccc(Br)cc1C(=O)c1ccccc1,-20%
CCCCCn1c(N)c(C(=O)NCc2cccs2)c2nc3ccccc3nc21,?
CSC1=NP(=S)(SC)N2CCCC2=C1C#N (centres undefined),8%
COc1cc2c(cc1OC)-c1c(OC)c(OC)c(OC)c3ccnc(c13)C2=O,?
CCCC[C@H]1C(=O)O[C@H](C)[C@H](NC(=O)c2cccc(NC=O)c2OC)C(=O)O[C@@H](C)[C@@H]1OC(=O)CC(C)C,-10%
CCN1C[C@]2(C)CC[C@H](OC)[C@]34C5C[C@@H]6CC[C@@](O)(C5C(=O)O6)C(C13)[C@@H](OC(=O)c1ccccc1)C24,-4%
CO[C@H]1[C@H](O)[C@H](O[C@@H]2[C@H](Oc3cccc4c(O)c5c(=O)oc6ccc(C)c7c(=O)oc(c34)c5c67)O[C@@H](C)[C@H](O)[C@H]2O)O[C@@H](C)[C@@H]1O,-2%
C=CCn1c(O)c(C=NCCCOc2ccc(CC)cc2)c(=O)[nH]c1=S,-27%
C/C=C1/CN2CC[C@]34C(=C(C=O)[C@H]1C[C@@H]23)Nc1ccccc14,-3%
COC(=O)[C@@H]1C[C@@]2(O)[C@H](O)[C@H](O)[C@H](O)C[C@H]2N1Cc1cccnc1,-6%
O=C(Nc1ccccc1OC(=O)N1CCCCC1)N1CCCCC1,-10%
O=C(CN1C(=O)CCSc2ccccc21)N1CCC2(CC1)OCCO2,1%
CC12NC(Cc3ccccc31)c1ccccc12 (centres undefined),-6%
C=CCN1CC[C@@]2(C)c3cc(O)ccc3CC1[C@@H]2C,-12%
CC1CCCN(CC(=O)N2CCCc3ccccc32)C1 (centres undefined),3%
CCC(=O)N1N=C2C3CCN(CC3)C2C1c1ccccc1 (centres undefined),-3%
CN1CC[C@@]23CCCCC2C1Cc1ccc(O)cc13 (some centres undefined),0%
O=C(C1CC(c2ccc(F)cc2)=NO1)N1CCC2(CC1)OCCO2 (centres undefined),-5%
CN(C)C1(CNC(=O)c2ccc(Cl)c(S(=O)(=O)NCc3ccco3)c2)CCCCC1,0%
CCN(CC)c1ccc(/C=C2\C(=O)NC(=O)N(CC3CCCO3)C2=O)cc1 (centres undefined),25µM*
CC1=C(O)C(=O)C=C2C1=CC=C1[C@]2(C)CC[C@@]2(C)C3C[C@](C)(C(=O)O)CC[C@@]3(C)CC[C@@]12C (some centres undefined),2µM*
NC(N)=NCCCCCCCCCCN=C(N)N,4%

# The last 7 compounds of the part above come first, to join the parts.
SMILES,HPGD inh
CCC(=O)N1N=C2C3CCN(CC3)C2C1c1ccccc1 (centres undefined),-3%
CN1CC[C@@]23CCCCC2C1Cc1ccc(O)cc13 (some centres undefined),0%
O=C(C1CC(c2ccc(F)cc2)=NO1)N1CCC2(CC1)OCCO2 (centres undefined),-5%
CN(C)C1(CNC(=O)c2ccc(Cl)c(S(=O)(=O)NCc3ccco3)c2)CCCCC1,0%
CCN(CC)c1ccc(/C=C2\C(=O)NC(=O)N(CC3CCCO3)C2=O)cc1 (centres undefined),25µM*
CC1=C(O)C(=O)C=C2C1=CC=C1[C@]2(C)CC[C@@]2(C)C3C[C@](C)(C(=O)O)CC[C@@]3(C)CC[C@@]12C (some centres undefined),2µM*
NC(N)=NCCCCCCCCCCN=C(N)N,4%
COc1ccccc1N1CCN(Cc2c(F)cccc2Cl)CC1,-9%
Fc1cccc(F)c1CN1CCN(Cc2c(F)cccc2F)CC1,1%
ClC(Cl)(Cl)Cl,-3%&-6%
Cc1cc(Cl)nc(N)n1,-4%
Cc1nc2cc(C(=O)N3CCC4(CC3)OCCO4)ccc2n1-c1ccc(Br)cc1,8.9µM*
CC12CN3C(O)C(C)(C1)CC(C)(C2)C3O (centres undefined),-3%
C[N+]1(C)CCc2cc3c(cc2[C@H]1[C@@H]1OC(=O)c2c1ccc1c2OCO1)OCO3,-11%
CN1C(=O)CCS(=O)(=O)[C@H]1c1ccc(Cl)cc1,0%
N#CC(C#N)=Cc1ccc([N+](=O)[O-])c(O)c1,16µM*
CCOP(=O)(Cc1cc(C#N)oc1C)OCC,2%
OC(c1ccc(Cl)cc1)(c1ccc(Cl)cc1)C(Cl)(Cl)Cl,-6%
O=c1[nH]c(=O)n(CC2CCCO2)c(O)c1/C=C1\C=Nc2ccccc21 (centres undefined),-24%
CCCCn1c(O)c(C(C)=NCCCN(C)C)c(=O)[nH]c1=O,-2%
Brc1ccc(C2N3CCCN23)cc1 (centres undefined),-9%
O=c1c2ccccc2nc(-c2ccco2)n1-c1ccccc1,-29%
C=COCCn1c(C)c(C(=O)OCC)c2cc(O)ccc21,-8%
CN1CC[C@@]2(C)c3cc(O)ccc3N(C)C12 (some centres undefined),-13%
CC(N)[C@H](O)c1ccc(O)c(O)c1 (some centres undefined),-12%
O=[N+]([O-])c1cccc2ccccc12,-5%
CCOP(=O)(OCC)C(NC(=O)C(Cl)Cl)C(Cl)(Cl)Cl (centres undefined),-3%
N=C1c2ccccc2CN1CC(=O)c1ccccc1,1%
COc1ccc2c(c1)[C@@]13CCCCC1[C@@H](C2)N(C)CC3 (some centres undefined),-2%
CCOP(=S)(OCC)SCC(=O)NC(C)(CC)C(=O)O (centres undefined),-8%
O=C1OCCC1NC1=NCCC1 (centres undefined),-10%
CCCCC(=O)N/N=C/c1c(O)n(C2CC2)c(=S)[nH]c1=O,-5%
# Remaining list, next part
SMILES,HPGD inh
CCOP(=O)(C#CC(C)(C)C)C1(O)CCCCC1 (centres undefined),-10%
CN(CC1COc2ccccc2O1)c1nc(-c2cccnc2)nc2ccccc12 (centres undefined),-14%
CCCC(=O)Nc1cc(C(=O)N2CCC3(CC2)OCCO3)ccc1S(=O)(=O)c1ccc(C)cc1,-6%
O=C1CCO1,-10%&-4%
Oc1ccc(/C=N/NP(=S)(c2ccccc2)c2ccccc2)c(O)c1O,22µM*
C=CCCC#N,-10%
O=C(Cn1cnc2sc3c(c2c1=O)CCCC3)NCCC(=O)N1CCC2(CC1)OCCO2,-12%
CCN(CC)c1ccc(CN(C)CCc2ccc(OC)c(OC)c2)cc1,6%
NC1=Nc2ccccc2Oc2ccccc21,-14%
CC(=O)c1ccc2c(c1)OCO2,-24%
O=c1c2ccccc2nc(-c2ccc(-c3ccccc3)cc2)n1-c1ccncc1,-6%
O=C1NC(=S)NC(=O)C1C/C=C/c1ccccc1,10µM*
CN(C)P(=NC(=S)c1cccn1C)(N(C)C)N(C)C,-16%
OC(c1ccc(F)cc1)(c1ccc(F)cc1)[C@@H]1CCCN1,0%
ClCc1ccccn1,-6%
CCCN1CC[C@@H]2c3cc(O)ccc3CC[C@@H]21,-6%
CNC(=O)[C@H]1C[C@@H]1[C@H](NP(=O)(c1ccccc1)c1ccccc1)c1ccccc1,-8%
Cn1c(CN2CCN(C(=O)COc3ccccc3)CC2)nc2cc([N+](=O)[O-])ccc21,-1%
CCc1cc2c(N3CCN(C)CC3)ncnc2s1,-12%
Cc1ccc(-n2sc3ccccc3c2=O)cc1,0.63µM*
CCC1(C2=NCCN2)Cc2ccccc2O1 (centres undefined),-8%&-5%
COc1cc(CN2C(=O)NC(=O)C3(Cc4cc(C)ccc4N(C)C3)C2=O)cc(OC)c1 (centres undefined),-18%
CC[N+](CC)(CCCNC1=CC(=O)C(NCCC[N+](CC)(CC)Cc2ccccc2)=CC1=O)Cc1ccccc1,-4%
CC(=O)[C@@]1(O)CC[C@H]2[C@@H]3CC=C4C[C@@H](O)CC[C@]4(C)[C@H]3CC[C@@]21C,1%
CN(C)C(=O)Oc1c(Cl)cc(Cl)c2ccccc12,-7%
COc1ccc(OCCn2cc(/C=C(\C#N)C(=O)NCc3ccco3)c3ccccc32)cc1,396%[activator]
c1cncc(CNC2=NCCC2)c1,1%
COc1ccccc1CCNC1C2CC3CC(C2)CC1C3 (centres undefined),0%

# In the list so far, these have bromine.
SMILES,HPGD inh
C/C(O)=C(\C#N)C(=O)Nc1cc(Br)ccc1Br,-13%
O=[N+]([O-])c1ccc(N2CCCC2)c(F)c1Br,-17%
O=C(CNC(=O)OCc1ccccc1)NCC(=O)Nc1ccc(Br)cc1C(=O)c1ccccc1,-20%
Cc1nc2cc(C(=O)N3CCC4(CC3)OCCO4)ccc2n1-c1ccc(Br)cc1,8.9µM*
Brc1ccc(C2N3CCCN23)cc1 (centres undefined),-9%
